Source: PubChem BioAssay (National Center for Advancing Translational Sciences (NCATS))
Rango dissoc inh: qHTS Assay for Inhibitors of RanGTP induced Rango (Ran-regulated importin-beta cargo) - Importin beta complex dissociation | hit rate 0.071% among 340,000 | Biochemical FRET Rango-importin beta, RanGTP-induced dissociation | Snurportin-1 (Homo sapiens) + GTP-binding nuclear protein Ran (Homo sapiens) + Importin … | Potency, µM (titrated, usually from 46.1 µM), without a hit: at the top dose activity change, negative = inhibition; active means falling FRET ratio curve, often poorly fitted, with flat reads before Ran was added; inconclusive means other falling curves, or compound fluorescence or quenching; inactive means flat or rising ratio curve;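 note: potency is the fitted concentration of half-maximal effect; % of control where 0% means no effect; nearly all actives have a fitted effect of over 45% in size; -100% = wells without RanGTP and RCC1; the record marks most hits as doubtful in a second field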
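Rango FRET biosensor (snurportin-1 IBB flanked by N-terminal EYFP and C-terminal CFP10) at 0.1 uM, with 0.25 uM importin beta in PBS, 1mM DTT, 0.02% Tween-20, 0.1% BSA. 0.6 uM Ran, 2mM GTP and 0.2 uM RCC1 were then added for 45 min at room temperature. Inhibition read as loss of FRET rise.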
miR-21 FLuc: qHTS Assay for Modulators of miRNAs and/orActivators of miR-21 | HeLa miR-21 FLuc reporter, luciferase, 48 h | Potency, µM (highest dose often 38.3 µM), for inactives: at the highest dose reporter change, positive = more light | 340,000 tested, under 10 active; active = well fitted rising curve with a large enough effect; inconclusive = small, poorly fitted or top-dose-only effect; inactive = no such curve, though single readings can be large or run the other way;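 note: % of control where 0% means no effect; miR-21 action dims this reporter so a rising signal means less miR-21 action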
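HeLa cells stably expressing CMV-driven firefly luciferase with a downstream miR-21 binding sequence, endogenously expressing miR-21, were treated with titrations (up to about 40uM final) for 48 hours at 37 degree Celsius. Luciferase luminescence was read after lysis.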
GLA inh pH 4.5: qHTS Assay for Inhibitors of Human alpha-Galactosidase at pH 4.5. activity change, negative = inhibition, % at 105 µM. purified enzyme, 4-MU-alpha-Gal fluorescence, pH 4.5. 230,000 tested, under 10 active; inconclusive = small, poorly fitted or top-dose-only inhibition, or a rising curve; inactive = flat fitted curve, though single readings scatter; no compound was filed as active;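 note: 0% = full activity with enzyme and -100% = basal without enzyme; dose as in the result columns while the protocol names 77 µM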
Rango complex inh: qHTS Assay for Inhibitors of Rango (Ran-regulated importin-beta cargo) - Importin beta complex formation; Importin subunit beta-1 (Homo sapiens), Q14974; Rango CFP/YFP FRET sensor + importin beta, 45 min; Potency, µM (series often up to 92.2 µM), inactives show at the top dose inhibition of complex formation; hit rate 0.031% among 340,000; AID 540263, 2011; active = rising FRET ratio curve, often small or poorly fitted; inconclusive = mostly compound fluorescence or quenching in the first reads; inactive = flat curves in all reads;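 note: potency is the fitted concentration of half-maximal effect; 0% = DMSO wells and 100% = buffer wells lacking importin beta; nearly all actives have a fitted effect of over 15% in size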
Target sequence (Q14974 whole entry, looked up): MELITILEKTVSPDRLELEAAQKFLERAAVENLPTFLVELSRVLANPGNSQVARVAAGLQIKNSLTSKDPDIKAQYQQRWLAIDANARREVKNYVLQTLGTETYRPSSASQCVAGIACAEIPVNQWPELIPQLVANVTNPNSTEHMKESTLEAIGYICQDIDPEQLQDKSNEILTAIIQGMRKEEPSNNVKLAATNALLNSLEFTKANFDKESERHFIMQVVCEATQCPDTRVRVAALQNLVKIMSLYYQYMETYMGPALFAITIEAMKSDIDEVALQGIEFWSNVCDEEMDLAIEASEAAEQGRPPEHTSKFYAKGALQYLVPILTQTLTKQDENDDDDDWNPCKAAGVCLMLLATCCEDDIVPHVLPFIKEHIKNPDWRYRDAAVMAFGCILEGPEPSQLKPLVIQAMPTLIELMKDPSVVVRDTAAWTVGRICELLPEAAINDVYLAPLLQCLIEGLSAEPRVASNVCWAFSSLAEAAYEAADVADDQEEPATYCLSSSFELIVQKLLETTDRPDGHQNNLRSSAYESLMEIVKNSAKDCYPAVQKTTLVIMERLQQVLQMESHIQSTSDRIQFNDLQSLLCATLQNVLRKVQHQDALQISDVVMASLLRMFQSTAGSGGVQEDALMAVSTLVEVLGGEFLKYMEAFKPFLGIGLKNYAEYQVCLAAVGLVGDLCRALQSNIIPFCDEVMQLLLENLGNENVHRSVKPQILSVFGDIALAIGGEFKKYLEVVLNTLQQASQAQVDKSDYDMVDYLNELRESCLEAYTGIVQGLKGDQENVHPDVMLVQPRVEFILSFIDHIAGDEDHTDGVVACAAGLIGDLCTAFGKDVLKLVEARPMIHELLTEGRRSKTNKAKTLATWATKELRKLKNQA
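Inhibition scored from the CFP 486 nm/YFP 530 nm FRET ratio 45 min after adding 0.125 microM importin beta to 50 nM Rango biosensor preincubated 5 min with compound (room temperature, PBS with DTT, Tween-20, BSA). No-importin wells as positive control.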
Numbers without * were called inactive; ? = inconclusive; . = not tested or not shown. These rows are one share of the data. The share of hits here may be higher or lower than overall.

The first 16 entries, to show the layout:
SMILES | Rango dissoc inh | miR-21 FLuc | GLA inh pH 4.5 | Rango complex inh
COC(=O)C1=C(c2cc3ccccc3s2)C[C@@H]2CC[C@H]1N2C(=O)NCC1CC1 | 4% | . | . | -2.7%
O=C(N=Nc1c(O)[nH]c(=O)[nH]c1=O)C1COc2ccccc2O1 (configuration not stated) | 0% | -8% | -16 | -1.3%
CCC1C2CC3C4N(C)c5ccccc5C45CC(C2C5O)N3[C@@H]1O (some centres not stated) | -1% | -3% | . | 0.5%
CN1CCN(c2ccc(C(F)(F)F)cc2N)CC1 | -22% | -25% | -5 | -1.4%
CC1c2ccccc2-n2nncc2CN1C (configuration not stated) | 15% | . | . | -1.3%
CCCCn1c(=O)c(C=Nc2cc([N+](=O)[O-])ccc2OC)c(O)n(CCCCl)c1=O | -3% | -4% | -4 | 0.1%
CC1(C)CC(=O)C=C(NCCN2CCN(C(=O)Cc3ccc(Cl)cc3)CC2)C1 | 13% | 2% | 4 | 0.3%
CCN(CC)c1ccc(/C=C2/C(=O)NC(=O)N(CC3CCCO3)C2=O)cc1 (configuration not stated) | -27% | 0% | 2 | ?
Cn1cc(C(O)CN2CCCCC2)c2ccccc21 (configuration not stated) | -24% | 1% | . | -2.2%
CCCCn1c(O)c(C(C)=NCc2cccnc2)c(=O)[nH]c1=O | 0% | 4% | 2 | 1.4%
CCOP(=O)(OCC)c1cccc(OP(=O)(c2cccc([N+](=O)[O-])c2)c2cccc([N+](=O)[O-])c2)c1 | 7% | 1% | 0 | -1.5%
Cn1c(O)c(C=NCCCN2CCCC2=O)c(=O)n(C)c1=O | -6% | 2% | 3 | -2.6%
COc1ccc(NC(=O)CN2CC=C(c3ccccc3)CC2)cc1S(=O)(=O)N1CCOCC1 | 10% | 4% | -7 | -2.2%
CN(C)c1ccc(C=C2C(=O)NC(=O)NC2=O)cc1 | -15% | . | . | ?
COc1cccc(C(=O)C2CCCN(Cc3ccccn3)C2)c1 (configuration not stated) | 10% | -4% | 8 | -1.8%
CC1CCCN(C(=O)CN2C3CCC2CC(O)(c2ccc(F)cc2)C3)C1 (configuration not stated) | 13% | 1% | 0 | 0.3%

Main list, from the first entry:
SMILES | Rango dissoc inh | miR-21 FLuc | GLA inh pH 4.5 | Rango complex inh
COC(=O)C1=C(c2cc3ccccc3s2)C[C@@H]2CC[C@H]1N2C(=O)NCC1CC1 | 4% | . | . | -2.7%
O=C(N=Nc1c(O)[nH]c(=O)[nH]c1=O)C1COc2ccccc2O1 (configuration not stated) | 0% | -8% | -16 | -1.3%
CCC1C2CC3C4N(C)c5ccccc5C45CC(C2C5O)N3[C@@H]1O (some centres not stated) | -1% | -3% | . | 0.5%
CN1CCN(c2ccc(C(F)(F)F)cc2N)CC1 | -22% | -25% | -5 | -1.4%
CC1c2ccccc2-n2nncc2CN1C (configuration not stated) | 15% | . | . | -1.3%
CCCCn1c(=O)c(C=Nc2cc([N+](=O)[O-])ccc2OC)c(O)n(CCCCl)c1=O | -3% | -4% | -4 | 0.1%
CC1(C)CC(=O)C=C(NCCN2CCN(C(=O)Cc3ccc(Cl)cc3)CC2)C1 | 13% | 2% | 4 | 0.3%
CCN(CC)c1ccc(/C=C2/C(=O)NC(=O)N(CC3CCCO3)C2=O)cc1 (configuration not stated) | -27% | 0% | 2 | ?
Cn1cc(C(O)CN2CCCCC2)c2ccccc21 (configuration not stated) | -24% | 1% | . | -2.2%
CCCCn1c(O)c(C(C)=NCc2cccnc2)c(=O)[nH]c1=O | 0% | 4% | 2 | 1.4%
CCOP(=O)(OCC)c1cccc(OP(=O)(c2cccc([N+](=O)[O-])c2)c2cccc([N+](=O)[O-])c2)c1 | 7% | 1% | 0 | -1.5%
Cn1c(O)c(C=NCCCN2CCCC2=O)c(=O)n(C)c1=O | -6% | 2% | 3 | -2.6%
COc1ccc(NC(=O)CN2CC=C(c3ccccc3)CC2)cc1S(=O)(=O)N1CCOCC1 | 10% | 4% | -7 | -2.2%
CN(C)c1ccc(C=C2C(=O)NC(=O)NC2=O)cc1 | -15% | . | . | ?
COc1cccc(C(=O)C2CCCN(Cc3ccccn3)C2)c1 (configuration not stated) | 10% | -4% | 8 | -1.8%
CC1CCCN(C(=O)CN2C3CCC2CC(O)(c2ccc(F)cc2)C3)C1 (configuration not stated) | 13% | 1% | 0 | 0.3%
CCOc1ccc(-c2cc(C)[n+](CCc3ccc(OC)c(OC)c3)c(-c3ccc(OCC)cc3)c2)cc1 | 3% | ? | . | -3.5%
CCOc1cc(CNC(C)C(O)c2ccccc2)cc(Cl)c1OCC (configuration not stated) | 3% | 7% | -1 | -0.7%
CC[C@H]1OC(=O)C[C@@H](O)[C@H](C)[C@@H](O[C@@H]2O[C@H](C)[C@@H](O[C@H]3C[C@@](C)(O)[C@@H](O)[C@H](C)O3)[C@H](N(C)C)[C@H]2O)[C@@H](CC=O)C[C@@H](C)C(=O)/C=C/C(C)=C/[C@@H]1CO[C@@H]1O[C@H](C)[C@@H](O)[C@@H](OC)[C@H]1OC | -8% | . | . | -1.4%
Cc1ccc2c(c1)C1CN(C)CCC1N2C(=S)Nc1cccnc1 (configuration not stated) | 0% | 11% | 13 | -1.7%
CCCc1nc2ccccc2c(=O)n1-c1ccc(O)cc1 | 8% | -13% | 7 | -0.2%
CCn1c(O)c(C=Nc2ccc(N3CCOCC3)c(Br)c2)c(=O)n(CC)c1=S | -7% | 9% | 9 | ?
Cc1ccc(N2C(=O)NC(=O)C3(Cc4ccccc4N4CCCC43)C2=O)cc1 (configuration not stated) | ? | -1% | 7 | ?
CCCCCCCCCCCCn1ccc(=N)cc1 | -12% | ? | -9 | ?
CCC(=NCc1cccnc1)c1c(O)n(C2CCCCC2)c(=O)[nH]c1=O | 7% | -9% | -11 | 0.9%
Cc1ccc(N/N=C/C=C/c2ccco2)cc1 | ? | . | . | ?
COc1ccc(/C=C2/Sc3ccc(C(=O)N4CCc5ccccc5C4)cc3NC2=O)cc1 | 0% | -7% | 1 | ?
Cc1cc(/C=C2\C(=O)NC(=O)N(c3ccccc3)C2=O)c(C)n1-c1ccc(C(=O)O)c(Cl)c1 | -16% | 2% | . | 2.4%
Cc1nc2cc(-c3ccccc3)nn2c(C)c1CCC(=O)N1CCC2(CC1)OCCO2 | 12% | 18% | -7 | 1.0%
CCOP(=O)(OCC)C1(C(=O)O)CCCC1 | -10% | 4% | -1 | 4.3%
COc1cccc(OC)c1CN1CCCC(C(=O)c2cccc(Cl)c2)C1 (configuration not stated) | 13% | 27% | . | -3.7%
N=c1ccccn1Cc1ccccc1 | 3% | 0% | 5 | 5.3%
Cc1ccccc1-c1ccc2n1Cc1cnnn1-c1ccccc1-2 | 6% | . | . | 5.0%
CCC1(c2cccc(O)c2)CCCCN(C)C1 (configuration not stated) | -10% | . | . | 1.9%
CCCn1cc(C(=O)O)cn1 | 17% | -1% | 0 | -0.8%
CCn1c(C)c(C(=O)NCCc2ccccc2)c2cc(OC)ccc21 | 9% | -13% | . | 2.4%
CCOC(=O)c1c(N)n(CCN2CCOCC2)c2nc3ccccc3nc12 | ? | 0% | 16 | ?
NS(=O)(=O)c1ccc(N=Cc2c(O)n(-c3ccccc3)c(=O)[nH]c2=O)cc1 | -26% | 0% | -12 | 3.8%
O=C(Nc1ccc2c(c1)OCO2)c1cn(Cc2ccc(F)cc2)nn1 | 8% | -13% | -4 | -2.9%
COc1ccc2ccc(O)c(CN3CC=C(c4ccccc4)CC3)c2c1 | 2% | 0% | 1 | 1.1%
CC(C)c1oc(=O)cc2c1[C@@H](O)[C@H]1OC(=O)[C@@]3(C)CC[C@@H](O)[C@@]2(C)C13 (some centres not stated) | -14% | 12% | 8 | 0.6%
CC(=O)N(C1=NCCCS1)c1ccc(F)cc1 | -10% | -7% | -1 | -0.3%
CNCCc1c[nH]c2ccccc12 | 16% | -3% | -23 | -0.5%
Cc1ccc(C2SCC(=O)Nc3c2c(=O)[nH]n3C2CCOC(C)(C)C2)cc1 (configuration not stated) | 0% | -11% | -5 | -0.2%
COc1ccc2c3c1OC1[C@H](O)CCC4[C@@H](C2)N(C)CC[C@]314 (some centres not stated) | -20% | . | . | -1.9%
CCS(=O)(=O)C1=NN2C(=N)/C(=C\c3ccc(OC(=O)c4ccco4)cc3)C(=O)N=C2S1 | ? | -1% | . | -3.2%
CCCC(=O)c1cc(CP(=O)(OCC)OCC)oc1C | -11% | 2% | 1 | 4.2%
CC(C)(C)NC(=O)CN1CCCN(C(=O)COc2ccc(Cl)c3ccccc23)CC1 | -4% | . | . | -1.2%
C=CCN(CC=C)C(=O)CCN1CC1C (configuration not stated) | -10% | . | . | 1.3%
CC(=O)Nc1ccc(C(=O)OCC(=O)Nc2ccc(Cl)cc2C(=O)c2ccccc2)cc1 | 21% | -4% | -2 | -3.5%

Remaining list, next part
SMILES | Rango dissoc inh | miR-21 FLuc | GLA inh pH 4.5 | Rango complex inh
CC(=O)O[C@H]1CCC2C3CCC4=CC(=O)CCC4=C3C=C[C@@]21C (some centres not stated) | ? | 0% | . | ?
Nc1c(C(=O)NCCN2CCOCC2)c2nc3ccccc3nc2n1Cc1ccco1 | ? | -5% | ? | ?
Cc1ccc(N)c(C)c1 | -17% | . | . | -0.2%
C[C@@H]1O[C@@H](O[C@@H]2C=C3CCC4C(CC[C@]5(C)[C@@H](c6ccc(=O)oc6)CC[C@]45O)[C@@]3(C)CC2)[C@H](O)[C@H](O)[C@H]1O (some centres not stated) | -5% | . | . | 0.5%
Cc1cc(NC(=O)CCl)no1 | -7% | 28% | -4 | ?
COP(=S)(OC)c1c(C)nn(CCC#N)c1NC(=O)c1ccc(Cl)cc1 | 8% | 0% | . | 0.5%
Cc1ccc(N)c(C(=O)c2ccccc2)c1 | 7% | -3% | 9 | -3.7%
CC(NS(=O)(=O)OCC(Cl)(Cl)Cl)c1ccccc1 (configuration not stated) | 3% | 1% | . | 2.7%
Cn1c(=O)c2c(ncn2CCCl)n(C)c1=O | -15% | 4% | 0 | 5.5%
O=C1/C(=C\c2ccncc2)N2CCC1CC2 | 12% | 1% | 1 | 6.4%
Cc1ccc2c(c1)C(c1ccccc1)=NCC(=O)N2 | ? | 3% | . | 3.2%
COC(=O)C1=C(c2ccc(C(C)=O)cc2)C[C@@H]2CC[C@H]1N2C(=O)N1CCC(O)(c2ccc(Cl)cc2)CC1 | 6% | . | . | 0.6%
OC(CN1CCC(c2c[nH]c3ccccc23)CC1)C(F)(F)F (configuration not stated) | -21% | 0% | . | -0.3%
CCc1ccc(NC(=O)CCNC(=O)N2C[C@H]3C[C@@H](C2)c2cccc(=O)n2C3)cc1 | 24% | -23% | . | 4.8%
Clc1ccc(CNC2CN3CCC2CC3)cc1 (configuration not stated) | 12% | -4% | 2 | -0.1%
Cc1ccccc1C(O)(Cc1ccccc1)C1CN2CCC1CC2 (configuration not stated) | -9% | 8% | 5 | -2.0%
COC(=O)C1=C(c2ccc(F)cc2F)C[C@@H]2CC[C@H]1N2C(=O)NCc1ccc(C(F)(F)F)cc1 | 6% | . | . | -1.3%
O=C(Cc1cc(=O)[nH]c(=O)[nH]1)N1CCN(CCO)CC1 | -27% | -1% | -2 | ?
Nc1ccccc1C(=O)OCC(=O)Nc1ccc(Br)cc1F | 0% | -47% | -18 | 3.3%
O=C(O)c1ccc(NC(=O)N2C[C@H]3C[C@@H](C2)c2cccc(=O)n2C3)cc1 | 2% | -2% | -11 | -1.6%
Cc1ccccc1NC(=NCCCN1CC1)Nc1ccccc1C | -2% | . | . | -1.7%
